ugtP null kill: compounds lethal to S. aureus RN4220 ugtP deletion mutant; 0.54% of 330,000 active; growth inhibition, % (concentration not given with the values); OD600 growth, 16 h; some inactives read as strong as hits;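 active means z-score under -3 and OD600 up to 0.15 on both plates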;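 further: plate controls were untreated wells for no effect and antibiotic for full effect; wells of about 80 µL received 100 nL stock; the first replicate is given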
Bead autofluor: flagged as autofluorescent in microsphere protease counterscreen. compound autofluorescence counterscreen, microsphere flow cytometry; stronger effect = higher value. AID 624483. fluorescence intensity (test concentration not listed). 3.1% of 360,000 active;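 active means at least 3 SD above the mean of all compounds, about 16000 in these data; inconclusive means too few beads counted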;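 further: 100 nL of 1 mM stock went into each well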
PrP 5UTR inh: suppresses PrP 5' UTR mRNA reporter expression | cell-based PrP 5' UTR mRNA reporter, plate reader | inhibition, % (concentration not given with the values) | 0.35% of 340,000 active;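 active means every replicate at 50% or more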;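 further: 0 = median of the neutral control wells; tested in H4 reporter cells; numbers are from one replicate; inactives centre near -14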
Mtb hypoxia inh: inhibitors of hypoxia-regulated fluorescent reporter in Mycobacterium tuberculosis | M. tuberculosis hypoxia-regulated fluorescent reporter, fluorescence | fluorescence inhibition, % (concentration not given with the values) | 0.1% of 300,000 active;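 active means 35 to 45% if threefold the growth effect, above 45% if 1.5-fold the growth effect; inactive means the rest, general growth blockers included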;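 further: wells of about 50 µL received 100 nL stock; 0% = vehicle wells and 100% = reference inhibitor wells; whole bacteria with a GFP reporter of the hypoxia response; strong numbers were not always called active; many hits fall short of the cut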
BJeLR lethal: BJeLR cell viability loss; 0.17% of 300,000 active; inhibition, % (no concentration beside the values); BJeLR (HRASV12) viability, CellTiter-Glo ATP luminescence, 48 h; reference of the scale not given here; AID 1554;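 active means replicate mean above 50%; inconclusive means above 50% but judged a plate artefact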;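 further: 50 nL library stock added to about 25 µL; numbers are from one replicate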
RN4220 kill: kills Staphylococcus aureus RN4220; AID 1259311; inhibition, % (concentration not given with the values); 0.33% of 330,000 active; S. aureus RN4220 growth, OD600, 16 h;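 active means z-score of -3 or lower and OD600 up to 0.18 on both plates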;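 further: plate controls were untreated cells for no effect and reference antibiotic for full effect; stock transfer was 100 nL into about 80 µL; one replicate is shown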
Mtb hypoxia inh growth: also measured in Mtb hypoxia inh; calls as there; growth inhibition, %; measured here: M. tuberculosis growth (absorbance);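 0% = vehicle and 100% = reference antibiotic; read after six days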
* marks the source's active call; other numbers are inactive results; u = inconclusive; x = not tested or not shown. This is a random part of the collection, and some 4% of all compounds hit somewhere here.

SMILES	ugtP null kill	Bead autofluor	PrP 5UTR inh	Mtb hypoxia inh	Mtb hypoxia inh growth	BJeLR lethal	RN4220 kill
Cc1cc(C)cc(NC(=O)C(OC(=O)Cn2cnc3c2c(=O)n(C)c(=O)n3C)c2ccccc2)c1 (configuration not stated)	-0.6	5981	-31.5	-2.2	-1.0	4.4	3.8
Cc1sc2ncnc(SCC(=O)NCC(C)C)c2c1C	3.4	3242	-0.1	16.2	16.6	-13.0	3.3
COC(=O)c1ccc(NC(=O)COC(=O)CSc2nc(C)cc(C)n2)cc1	-1.7	9406	-7.9	8.1	5.5	-12.7	4.8
CCOc1cccc2cc(C(=O)NCCC3=CCCCC3)c(=O)oc12	4.2	4677	-35.0	-1.4	6.2	1.5	-10.0
CN1CCCN(C(=O)COc2ccccc2)CC1	3.3	6455	-42.4	-9.4	-10.7	10.0	1.0
CC1=NNC(=O)C(CC(=O)Nc2ccc(Cl)c(Cl)c2)C1 (configuration not stated)	-3.7	8680	-2.1	-4.3	5.6	-14.2	-1.0
O=C(Nc1ccc(N2CCOCC2)cc1)c1ccncc1	-1.0	2737	-24.2	9.2	3.8	-7.7	-7.3
COc1cc(C=NNC(=O)Cn2c([N+](=O)[O-])cnc2C)ccc1OC(=O)N(C)C	12.4	x	x	15.0	7.4	x	3.5
CCOC(=O)CC(C)(C)/C(C)=N/Nc1ccc([N+](=O)[O-])cc1[N+](=O)[O-]	x	2081	30.9	x	x	2.3	x
COc1cc(CN2CCNC(=O)C2CC(=O)NCCC2=CCCCC2)cc(OC)c1 (configuration not stated)	6.0	3409	-8.6	8.3	-5.4	4.0	7.7
COc1ccc(C(=O)NC2CCc3ccccc32)cc1OC1CCN(C(C)C)CC1 (configuration not stated)	10.3	5572	-24.6	0.1	4.9	0.5	4.0
O=C(Nc1ccccc1F)c1ccc(OCc2ccccc2)cc1	3.6	1926	-19.2	12.7	0.0	-10.6	2.8
CC1CCCC(NC(=O)CSC2CCCCC2)C1C (configuration not stated)	5.0	3895	-26.1	19.6	29.5	7.7	1.0
C[n+]1c(-c2ccccc2)sc2ccccc21	5.7	3108	-13.2	8.4	9.5	-8.0	5.4
CC1CCCC(NC(=O)CSc2ccc(F)cc2)C1C (configuration not stated)	0.0	4831	-19.6	1.0	-5.4	6.9	-0.7

Reprinted from the part before: two entries, followed by the next part.
SMILES	ugtP null kill	Bead autofluor	PrP 5UTR inh	Mtb hypoxia inh	Mtb hypoxia inh growth	BJeLR lethal	RN4220 kill
C[n+]1c(-c2ccccc2)sc2ccccc21	5.7	3108	-13.2	8.4	9.5	-8.0	5.4
CC1CCCC(NC(=O)CSc2ccc(F)cc2)C1C (configuration not stated)	0.0	4831	-19.6	1.0	-5.4	6.9	-0.7
NNC(=O)CCCNc1ncc(C(F)(F)F)cc1Cl	5.3	4532	-9.1	3.6	-2.0	-6.4	5.4
O=C1c2ccccc2NC(c2ccc(-c3ccc(C(F)(F)F)cc3)o2)N1O (configuration not stated)	-16.8	4145	23.5	8.9	5.7	x	8.5
CCc1cc(OCCN(C)C)ccc1Cl	-65.2	4697	-1.8	0.4	-0.8	-0.8	8.4
Cc1cc(OCn2ccc(C(=O)O)n2)ccc1Cl	1.5	2918	-3.7	5.5	10.5	2.0	5.2
Cc1ccc(NC(=S)NC2CC3CCCC(C2)N3Cc2ccco2)cc1 (configuration not stated)	3.0	4536	-15.1	9.1	2.5	-2.9	1.7
O=C(Cc1cccc2ccccc12)NN1C(=O)C2C(C1=O)C1C=CC2C12CC2 (configuration not stated)	2.1	2003	-15.9	10.6	8.4	3.4	23.0
CC(=O)c1ccc(NC(=O)C2CCCO2)cc1 (configuration not stated)	9.0	3962	-19.7	-1.0	1.5	-4.4	3.8
COc1ccc(CC(=O)NCCCCc2ccccc2)cc1OC	-3.6	6191	-7.1	12.7	6.0	-3.1	1.0
Cc1coc2cc3oc(=O)c(CC(=O)N4C[C@H]5C[C@@H](C4)c4cccc(=O)n4C5)c(C)c3cc12	-19.0	5351	1.5	x	x	-2.6	1.9
COc1ccc(NS(=O)(=O)c2cc(NS(=O)(=O)c3cc(C(=O)O)ccc3OC)ccc2C)cc1	-1.6	3687	-16.4	-0.1	2.0	x	-1.2
COc1ccccc1C1=Nc2cccc3cccc(c23)N1	-26.5	7067	-7.1	3.4	1.0	5.5	13.2
Cc1ccc(C)c(SCC(=O)NCC(c2ccco2)N2CCCCC2)c1 (configuration not stated)	0.2	u	-14.0	-1.9	5.4	-2.6	4.5
O=C(O)c1cccc(NC(=O)c2ccc3c(c2)C(=O)N(C2CCCCC2)C3=O)c1	8.6	4657	-21.6	12.2	15.3	3.2	7.3
Cc1cccc2cc(CN(Cc3ccco3)C(=O)c3ccncc3)c(=O)[nH]c12	9.8	x	-1.8	-2.5	7.5	0.6	16.5
Cc1ccc(S(=O)(=O)N2CCN(C(=O)C3CC(=O)N(c4ccc5c(c4)OCCO5)C3)CC2)cc1 (configuration not stated)	-5.3	3940	-11.8	-3.9	-3.1	x	-2.8
COc1cc(/C=N\NC(=O)c2ccc(-c3ccccc3)cc2)cc(OC)c1O	x	5178	-31.1	x	x	2.9	x
CCCOc1ccc(CC(=O)NCC2(c3ccccc3)CCOCC2)cc1OC	6.6	3791	-7.9	4.3	1.8	7.7	3.9
CCc1cccc(C)c1NC(=S)N(CCN(C)C)Cc1cccs1	23.2	3102	-9.8	1.2	-2.4	-17.0	9.3
COc1cccc(CNC(=O)CN(c2cc(C)cc(C)c2)S(=O)(=O)c2c(C)noc2C)c1	5.4	4153	21.8	x	x	16.8	9.6
Cc1ncc([N+](=O)[O-])n1CC(O)CCl (configuration not stated)	9.5	5688	25.2	1.9	0.3	1.1	9.9
Cc1ccccc1C(=O)Nc1scc(-c2ccc(Br)cc2)c1C(=O)O	47.0	4087	-6.5	17.2	7.0	4.0	49.8
CC(=NNC(=O)c1cc(Br)ccc1O)c1cccs1	-2.2	x	x	9.2	5.1	x	22.4
CCOc1ccc(N2CC(C(=O)Nc3ccccc3OC)CC2=O)cc1 (configuration not stated)	6.5	4858	-10.1	x	x	-7.0	0.8
Cc1ccc(C(=O)NCC(=O)Nc2ccc(F)c(F)c2F)cc1	4.9	3659	-17.2	-0.6	4.7	-2.3	0.3
COc1ccccc1OCCNC(=O)c1ccc(C)o1	2.8	u	-0.3	8.6	3.9	-4.8	4.6
CCOc1ccc(N=c2scc(-c3ccccc3)n2CCO)cc1	-2.3	4953	-32.5	0.4	19.7	19.7	-1.0
CCCOC1CCCN(C(=O)c2cc(Cl)c(Cl)cc2C(=O)O)C1 (configuration not stated)	3.8	4339	-21.4	2.0	11.5	-9.4	1.6
CN(c1ccccc1)S(=O)(=O)c1cccc(NC(=O)Cn2cnc3c2c(=O)n(C)c(=O)n3C)c1	13.8	2000	-6.8	10.4	-1.6	2.8	2.0
CCCn1c(SCC(=O)Nc2ccccc2C(=O)NC2CC2)n[nH]c1=O	-5.1	u	-11.4	0.4	11.3	x	0.0
CC(C)N=C(NC#N)SCc1ccc(F)cc1	-2.3	9556	-29.1	6.5	6.0	0.0	3.0

Next section; it opens with the two that closed the last part.
SMILES	ugtP null kill	Bead autofluor	PrP 5UTR inh	Mtb hypoxia inh	Mtb hypoxia inh growth	BJeLR lethal	RN4220 kill
CCCn1c(SCC(=O)Nc2ccccc2C(=O)NC2CC2)n[nH]c1=O	-5.1	u	-11.4	0.4	11.3	x	0.0
CC(C)N=C(NC#N)SCc1ccc(F)cc1	-2.3	9556	-29.1	6.5	6.0	0.0	3.0
Cc1ccc(S(=O)(=O)N2CCN(C(=O)COC(=O)c3ccc(O)cc3)CC2)c(C)c1	-0.5	x	4.4	0.9	-5.4	-4.8	0.3
CC(C)(C)c1ccccc1OCCCCCNCCO	17.4	18177*	-27.0	16.1	2.2	-10.0	-1.1
Cc1ccc(S(=O)(=O)N2CCOCC2)cc1C(=O)Nc1nc(-c2cccnc2)cs1	1.6	11126	-4.9	5.0	3.2	-4.4	4.1
CC(C)CC(C(=O)Nc1cccc(O)c1)N1C(=O)c2ccccc2C1=O (configuration not stated)	5.4	3171	2.8	2.4	-1.5	-3.0	2.0
COC(=O)c1ccccc1NC(=O)CN1C(=O)c2ccccc2S1(=O)=O	8.3	8330	-15.4	6.3	7.0	1.1	5.0
Cc1nnc(N2CCC(C(=O)N3CCCCC3)CC2)c2nn(-c3ccc(Cl)cc3)c(C)c12	-0.4	5743	-1.0	3.9	-4.6	-3.8	0.5
Cc1ccc(C)c(S(=O)(=O)N2CCC3(CC2)OCCN3S(=O)(=O)c2cccs2)c1	8.8	5532	-14.9	3.4	2.9	-3.5	4.3
CCOC(=O)C(/C(C)=N/NC(=O)C1CC1c1ccccc1)C(C)C (configuration not stated)	x	2207	5.7	x	x	-5.1	x
Cc1cc(C)cc(NC(=O)c2ccc(S(=O)(=O)C(F)F)cc2)c1	11.1	2006	-20.7	-2.3	-3.5	-3.3	2.3
CSc1nc2nc(-c3ccccc3)cc(C(F)(F)F)n2n1	4.6	2936	5.0	-0.1	6.3	3.5	10.8
Cc1c(OCC(=O)NCCCN2CCOCC2)ccc2c(-c3ccccc3)cc(=O)oc12	4.3	5900	-24.9	8.7	4.8	6.0	1.1
CCOC(=O)c1sc2nc3c(cc2c1N)C(=O)CC(C)(C)C3	-13.9	2238	-65.8	0.5	-12.2	-0.7	-5.9
O=C(COC(=O)COc1ccccc1[N+](=O)[O-])NC1CCCC1	8.6	8892	-39.5	10.9	14.3	2.9	0.1
CCNc1nc(NCC)nc(-n2nc(C)cc2C)n1	7.0	9895	-14.4	-4.8	7.4	-4.9	9.8
OCCN(Cc1ccccc1)CC1CCCCC1	3.7	10855	-10.8	-6.5	0.9	-6.7	2.9
NP(=O)(OCC(F)(F)F)Oc1ccccc1 (configuration not stated)	-0.7	4370	-19.7	4.1	-0.6	13.1	-3.1
CCN(C(=O)CSc1nnc(-c2ccccc2Cl)n1C1CCCC1)C1CCS(=O)(=O)C1 (configuration not stated)	2.9	4781	-2.5	x	x	3.3	2.8
Nc1nnnn1/N=C/c1ccc(Br)cc1	x	4304	-3.6	x	x	0.1	x
Cc1cccc(C)c1OCC(O)CNC(C)C (configuration not stated)	-9.6	2989	-17.5	0.8	13.6	-4.5	-9.9
CCOc1cccc(-c2nnc3sc(-c4ccco4)nn23)c1	0.1	9667	-28.3	-4.4	-10.0	2.8	4.8
COc1cccc(CN2CC(C(=O)NCCn3ccc(C)n3)CCC2=O)c1 (configuration not stated)	-0.1	6379	-20.3	6.1	3.4	-3.5	1.0
CC(C)(C)OC(=O)NCCc1nnc(SCc2ccccc2)o1	0.5	x	x	0.3	5.9	1.2	3.4
O=C(NC1CCCCC1)c1cc(S(=O)(=O)N2CCOCC2)ccc1Cl	-1.2	3230	10.9	-0.5	-5.3	5.7	-1.9
COc1ccc(COC(=O)N/N=C(\C)CC(=O)Nc2c(C)cc(C)cc2C)cc1	x	4617	-19.3	x	x	-11.6	x
COc1cccc(NC(=O)CN(C)C(=O)COc2cc(C)ccc2Cl)c1	1.8	5188	-14.5	4.9	2.4	-10.1	1.0
Cc1cccc(C)c1NC(=O)c1ccc(-c2ccc(Cl)cc2Cl)o1	-10.2	2836	-11.5	9.3	0.9	-0.6	-6.9
Cc1ccc(CNC(=O)c2ccc3c(c2)NC(=O)CS3)cc1	5.5	5370	-10.5	9.7	6.9	8.4	4.9
COc1ccc(NC(=O)CSc2nnnn2Cc2ccccc2)cc1	-4.3	4264	-1.5	3.5	10.3	7.3	3.8
C/C(=N\NC(=O)c1ccc(OC2CCCC2)cc1)c1ccc(C)s1	x	4661	-4.3	x	x	-13.2	x
CC1CC(C)CN(C(=O)C(C)N2CCN(S(=O)(=O)c3cccs3)CC2)C1 (configuration not stated)	11.1	8801	-15.7	5.5	-2.2	x	0.6
Cc1ccc(CC2C(=O)N(c3ccc(C)cc3)C(=O)C2C)cc1 (configuration not stated)	12.1	4577	11.1	17.1	0.6	-2.1	7.0
CCOc1ccccc1/C=N/Nc1cc(C)nc2ccc(C)cc12	x	3552	-20.1	x	x	-8.9	x

Structural class: the entries above with bromine (3)
SMILES	ugtP null kill	Bead autofluor	PrP 5UTR inh	Mtb hypoxia inh	Mtb hypoxia inh growth	BJeLR lethal	RN4220 kill
Cc1ccccc1C(=O)Nc1scc(-c2ccc(Br)cc2)c1C(=O)O	47.0	4087	-6.5	17.2	7.0	4.0	49.8
CC(=NNC(=O)c1cc(Br)ccc1O)c1cccs1	-2.2	x	x	9.2	5.1	x	22.4
Nc1nnnn1/N=C/c1ccc(Br)cc1	x	4304	-3.6	x	x	0.1	x
